Bioassay records (PubChem)
HP1b chromo inh = HTS for Inhibitors of HP1-beta Chromodomain Interactions with Methylated Histone Tails. AID 540317, 2011. Potency, µM (titrated, usually from 114 µM), for the others: at the highest dose activity change, negative = inhibition, most hits filed as inhibitors. AlphaScreen HP1-beta / biotin-H3K9me3 peptide binding. 0.56% of 390,000 active. Chromobox protein homolog 1 (Homo sapiens), P83916; further: potency means the concentration at half of the fitted maximal effect; nearly all actives have a fitted effect of over 70% in size; inactives centre near 23
Target sequence (P83916 whole entry, looked up): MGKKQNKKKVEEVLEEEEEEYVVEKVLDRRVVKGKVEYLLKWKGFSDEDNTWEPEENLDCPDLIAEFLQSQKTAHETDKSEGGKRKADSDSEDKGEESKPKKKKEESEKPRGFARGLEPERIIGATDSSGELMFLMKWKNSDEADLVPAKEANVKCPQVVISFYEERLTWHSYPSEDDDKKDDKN
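AlphaScreen: HP1-beta (50 nM) preformed 30 min with biotin-H3(1-18)K9me3 peptide (50 nM) in PBS pH 7.4, 0.01% Tween-20. Compound added for 30 min at RT, then streptavidin donor/nickel chelate acceptor beads (10 ug/mL) for 30 min.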
RGS4 inh = Inhibitors of Regulator of G Protein Signaling (RGS) 4: qHTS; Regulator of G-protein signaling 4 (Homo sapiens), P49798; Transcreener GDP fluorescence polarization, RGS4-accelerated GTP hydrolysis; Potency, µM (series often up to 114 µM), for the others: at the highest dose activity change, negative = inhibition, hits mostly inhibitors; 0.039% of 390,000 active; AID 504845, 2011; further: potency means the concentration at half of the fitted maximal effect; on the % scale 0 is the no-effect control and ±100 the full control effect; nearly all actives have a fitted effect of over 75% in size; some results filed as inactive show a strong effect at the top dose
Target sequence (P49798 whole entry, looked up): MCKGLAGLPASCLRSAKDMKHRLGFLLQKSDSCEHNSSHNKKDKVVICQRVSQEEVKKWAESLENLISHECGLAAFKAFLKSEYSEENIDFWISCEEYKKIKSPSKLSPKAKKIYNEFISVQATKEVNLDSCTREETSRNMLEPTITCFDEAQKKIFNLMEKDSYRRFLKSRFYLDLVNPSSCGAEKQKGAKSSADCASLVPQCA
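MLSMR compounds (23 nl, pin-transferred) preincubated 10 min at room temperature with a 500nM (2x) first reagent, then RGS4 at 900nM (2x) plus Transcreener GDP mix added; fluorescence polarization (620/688 nm) read before and after 90 min at 30 °C.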
PI4K2A block = qHTS for small molecular inhibitors of PI4K2A. purified PI4K2A, ADP-Glo luminescence, 1 h; hits give low values. Phosphatidylinositol 4-kinase type 2-alpha (Homo sapiens), Q9BTU6. 0.13% of 420,000 active. activity change, negative = inhibition, % at 76.9 µM; in the data active means activity change below about -50%; inconclusive means mostly about -30% to -49%;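 further: -100% = wells without enzyme as full effect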
Target sequence (Q9BTU6 whole entry, looked up): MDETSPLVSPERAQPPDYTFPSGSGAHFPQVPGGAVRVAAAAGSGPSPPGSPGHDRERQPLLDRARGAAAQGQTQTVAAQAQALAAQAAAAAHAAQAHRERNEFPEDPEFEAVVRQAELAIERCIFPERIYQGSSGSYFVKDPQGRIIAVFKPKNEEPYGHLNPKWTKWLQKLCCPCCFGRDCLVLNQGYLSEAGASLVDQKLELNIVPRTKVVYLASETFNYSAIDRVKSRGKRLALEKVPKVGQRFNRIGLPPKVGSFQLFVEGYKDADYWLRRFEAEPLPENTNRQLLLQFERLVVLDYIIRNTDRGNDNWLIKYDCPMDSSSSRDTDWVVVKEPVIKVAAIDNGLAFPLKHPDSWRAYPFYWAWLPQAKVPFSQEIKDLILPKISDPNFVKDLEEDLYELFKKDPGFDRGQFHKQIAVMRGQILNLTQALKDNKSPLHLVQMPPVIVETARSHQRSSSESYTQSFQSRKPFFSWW
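Compounds are screened against recombinant PI4K2A using PI as substrate and ATP, the latter dispensed at 300 microM. Reactions run one hour at ambient temperature before ADP-Glo detection; full inhibition defined by wells lacking enzyme.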
GLS inhibitor = qHTS for Inhibitors of Glutaminase (GLS). GLS enzymatic activity, qHTS titration. Potency, µM (highest dose often 45.5 µM), inactives show at the highest dose activity change, negative = inhibition, actives largely listed as inhibitors. 0.21% of 410,000 active. AID 624170, 2012; further: potency means the concentration at half of the fitted maximal effect; on the % scale 0 is the no-effect control and ±100 the full control effect
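Human kidney-isoform GLS in 45 mM KH2PO4 pH 8.2, 0.02% Tween-20, with compound, started with 1mM L-Glutamine (added stock). Glutamate oxidase/HRP/Amplex red coupled fluorescence read at start and after 30 min at RT.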
ERG Ets-DNA blk = qHTS for Small Molecule Inhibitors of the ERG Ets/DNA interaction. Transcriptional regulator ERG (Homo sapiens), P11308. fluorescence polarization, His-ERG Ets domain / labelled DNA. Potency, µM (titrated, usually from 76.9 µM), for inactives: at the highest dose FP activity, negative = inhibition, actives largely listed as inhibitors. 0.028% of 370,000 active. AID 624246, 2012; active means well fitted inhibition curve with a large enough effect in the polarisation, with a control signal flat; inconclusive means small, poorly fitted or top-dose-only effect, or effect the other way, or a change in a side signal; inactive means no such curve, though single readings can be large or run the other way; the % refers to the polarisation;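 further: polarization taken with two DNA probes labelled with fluorescein and Texas red; potency means the concentration at half of the fitted maximal effect; % of control where 0% means no effect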
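His-tagged ERG Ets domain (1 uM in the protein solution; 300mM KCl, 50mM Tris-HCl, 1mM EDTA, 1mM DTT, pH 7.5) received compound, then a probe mix of 5 nM fluorescein-DNA and 100nM Texas-615-DNA. Fluorescence polarization was read for both dyes.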
JMJD2A Tudor inh = qHTS Assay for Inhibitors of JMJD2A-Tudor Domain; AID 504339, 2011; 4.4% of 390,000 active; Lysine-specific demethylase 4A (Homo sapiens), O75164; Potency, µM (highest dose often 114 µM), inactives show at the highest dose activity change, negative = inhibition, actives largely listed as inhibitors; AlphaScreen JMJD2A-Tudor / H3K4me3 peptide binding; further: potency means the concentration at half of the fitted maximal effect; on the % scale 0 is the no-effect control and ±100 the full control effect; nearly all actives have a fitted effect of over 50% in size
Starred values were filed as active, the others as inactive; ? = inconclusive; / = not tested or not shown; & = joins results of further samples; [ ] = remark or other dose. Unless noted, the call rests on the fitted dose curve; in most records, active means well fitted curve in the direction sought with a large enough effect; inconclusive means small, poorly fitted or top-dose-only effect, or another doubt; inactive means no such curve, though single readings can be large; an effect the other way counts as inactive or inconclusive.

#1 Cc1nn(-c2ccccc2)c2sc(-c3nnc(SCC(=O)O)o3)cc12
#2 O=C(CN1C(=O)S/C(=C/C=C/c2ccccc2)C1=O)Nc1ccc(C(=O)O)cc1
#3 O=[N+]([O-])c1ccc(C2CCCC/C2=N/OCc2ccccc2F)c([N+](=O)[O-])c1 (stereo not drawn)
#4 Cc1cc(C(F)(F)F)nc(SCC(=O)NC2=NC(=O)C(C)S2)n1 (stereo not drawn)
#5 CN=C(NC#N)NCCSCc1nc[nH]c1C
#6 Cc1ccc(S(=O)(=O)Nc2ccc(-c3nc4ccc(C)cc4s3)cc2)cc1
#7 O=C(Nc1ccsc1C(=O)NC1CC1)c1ccccc1
#8 O=C(c1ccco1)N(Cc1ccc([N+](=O)[O-])cc1)c1ccc(Br)cc1

screen / no. | 1 | 2 | 3 | 4 | 5 | 6 | 7 | 8
HP1b chromo inh | -21% | -20% | ? | 4% | 24% | -8% | / | -20%
RGS4 inh | -37% | -24% | -9% | -47% | -3%[56.9 µM] | -35% | 7% | 1%[11.4 µM]
PI4K2A block | -2 | -2 | -1 | -4 | 1&-1&0 | -5 | 0 | 8
GLS inhibitor | 8% | 1% | 0% | 18% | 5%&9% | -1% | -1% | 4%
ERG Ets-DNA blk | / | -9% | 5% | / | 16% | 11% | -9% | 9%
JMJD2A Tudor inh | ? | ? | ? | -25% | -18% | ? | 5% | -33%[57.1 µM]

6 entries from above, as tab-separated lines.
no.	Structure	HP1b chromo inh	RGS4 inh	PI4K2A block	GLS inhibitor	ERG Ets-DNA blk	JMJD2A Tudor inh
2	O=C(CN1C(=O)S/C(=C/C=C/c2ccccc2)C1=O)Nc1ccc(C(=O)O)cc1	-20%	-24%	-2	1%	-9%	?
3	O=[N+]([O-])c1ccc(C2CCCC/C2=N/OCc2ccccc2F)c([N+](=O)[O-])c1 (stereo not drawn)	?	-9%	-1	0%	5%	?
4	Cc1cc(C(F)(F)F)nc(SCC(=O)NC2=NC(=O)C(C)S2)n1 (stereo not drawn)	4%	-47%	-4	18%	/	-25%
5	CN=C(NC#N)NCCSCc1nc[nH]c1C	24%	-3%[56.9 µM]	1&-1&0	5%&9%	16%	-18%
6	Cc1ccc(S(=O)(=O)Nc2ccc(-c3nc4ccc(C)cc4s3)cc2)cc1	-8%	-35%	-5	-1%	11%	?
7	O=C(Nc1ccsc1C(=O)NC1CC1)c1ccccc1	/	7%	0	-1%	-9%	5%

(more compounds)
#9 CC(CC(=O)Nc1nc2ccccc2[nH]1)c1ccccc1 (stereo not drawn)
#10 Oc1ccccc1/C=N/c1c(-c2ccco2)nc2ccccn12
#11 CC1(C)CC(=O)C2=C(C1)OC(N)=C(C#N)C2c1ccccc1OC(=O)N1CCOCC1 (stereo not drawn)
#12 COc1ccc(OC2C(=O)N(CCc3ccc(OC)c(OC)c3)C2c2ccc3c(c2)OCO3)cc1 (stereo not drawn)
#13 O=C(O)c1ccc(-c2ccc(/C=N/Nc3ccc([N+](=O)[O-])cc3)o2)cc1
#14 O=C(Cc1ccc(Cl)cc1)Nc1ccc(N2CCN(C(=O)c3ccco3)CC2)cc1
#15 Cc1ccc(S(=O)(=O)N[C@H](C(=O)N2CCC(C(=O)N3CCC[C@H]3C(=O)O)CC2)C(C)C)cc1
#16 COc1ccc(C(=O)N/C(=C/c2cccs2)c2nc3ccccc3[nH]2)cc1OC

screen / no. | 9 | 10 | 11 | 12 | 13 | 14 | 15 | 16
HP1b chromo inh | 14% | -10% | 31% | 8% | -9% | -15% | -24% | 5%
RGS4 inh | 39% | ? | 3% | 13% | -14%[11.4 µM] | -15%[11.4 µM] | 7% | -36%
PI4K2A block | 16 | -6 | 3 | -3 | -1 | 2 | -4 | 0
GLS inhibitor | 15% | 2% | 1% | 2% | -10% | 10% | -2% | 5%
ERG Ets-DNA blk | -4% | 13% | -3% | 4% | 42%[activator] | 8% | -11% | -4%
JMJD2A Tudor inh | -35% | ? | -22% | -26% | 3%[11.4 µM] | 25%[11.4 µM] | -21% | -26%

Compound profiles, as listed above:
O=C(O)c1ccc(-c2ccc(/C=N/Nc3ccc([N+](=O)[O-])cc3)o2)cc1 is listed as HP1b chromo inh: -9%; RGS4 inh: -14%[11.4 µM]; PI4K2A block: -1; GLS inhibitor: -10%; ERG Ets-DNA blk: 42%[activator]; JMJD2A Tudor inh: 3%[11.4 µM]
COc1ccc(OC2C(=O)N(CCc3ccc(OC)c(OC)c3)C2c2ccc3c(c2)OCO3)cc1 (stereo not drawn) is listed as HP1b chromo inh: 8%; RGS4 inh: 13%; PI4K2A block: -3; GLS inhibitor: 2%; ERG Ets-DNA blk: 4%; JMJD2A Tudor inh: -26%

Back to the main list, starting 4 compounds before the break.
#13 O=C(O)c1ccc(-c2ccc(/C=N/Nc3ccc([N+](=O)[O-])cc3)o2)cc1
#14 O=C(Cc1ccc(Cl)cc1)Nc1ccc(N2CCN(C(=O)c3ccco3)CC2)cc1
#15 Cc1ccc(S(=O)(=O)N[C@H](C(=O)N2CCC(C(=O)N3CCC[C@H]3C(=O)O)CC2)C(C)C)cc1
#16 COc1ccc(C(=O)N/C(=C/c2cccs2)c2nc3ccccc3[nH]2)cc1OC
#17 Cc1ccccc1Nc1nnc(SCC(=O)NCc2ccco2)s1
#18 Cn1c(NCCN2CCOCC2)nc2c1c(=O)n(Cc1cccc(Cl)c1)c(=O)n2C
#19 O=C(O)c1cccnc1Sc1ccccc1
#20 Clc1ccc(-c2noc(CN3CCN(c4ccccc4)CC3)n2)cc1
#21 O=[N+]([O-])c1ccc(S(=O)(=O)NCC(c2cccnc2)N2CCc3ccccc32)cc1 (stereo not drawn)
#22 O=C(CSCc1ccc(F)cc1)N1CCN(c2ccccc2)CC1
#23 Cc1ccccc1CS(=O)(=O)Cc1ccc(C(=O)NCCCN2CCOCC2)o1
#24 O=C(CN1C(=O)S/C(=C\C=C\c2ccccc2)C1=O)Nc1ccc(C(=O)O)cc1

screen / no. | 13 | 14 | 15 | 16 | 17 | 18 | 19 | 20 | 21 | 22 | 23 | 24
HP1b chromo inh | -9% | -15% | -24% | 5% | 1% | -1% | -3% | 18% | ? | / | / | ?
RGS4 inh | -14%[11.4 µM] | -15%[11.4 µM] | 7% | -36% | -27% | 26% | 16% | 12% | -13% | 5%&-3% | -11% | -34%
PI4K2A block | -1 | 2 | -4 | 0 | -4 | 8 | 1 | -13 | -6 | 0&4 | 1 | -2
GLS inhibitor | -10% | 10% | -2% | 5% | 12% | -4% | 10% | 9% | ? | 4%&13% | -10% | -1%
ERG Ets-DNA blk | 42%[activator] | 8% | -11% | -4% | 2% | 0% | -1% | 0% | 3% | -1%&0% | 9% | -11%
JMJD2A Tudor inh | 3%[11.4 µM] | 25%[11.4 µM] | -21% | -26% | ? | -33% | -28% | -16% | ? | -18%&-15% | -1% | ?

#25 CCOC(=O)/C(C#N)=C\C1=C(N2CCCC2)CC(C)(CC)OC1 (stereo not drawn)
#26 CCOC(=O)/C(C#N)=C/C1=C(N2CCCC2)CC(C)(CC)OC1 (stereo not drawn)
#27 O=C(CCS(=O)(=O)c1ccc(Br)cc1)N1CCN(c2ccccc2F)CC1
#28 COc1ccc(N2CCN(C(=O)CC3NC4CCCCC4NC3=O)CC2)cc1 (stereo not drawn)
#29 O=C(O)C1CC=CCC1C(=O)NCc1cn2ccccc2n1 (stereo not drawn)
#30 CCCc1cc(C(N)=O)c(NC(C)=O)s1
#31 CC(C)c1ccc(NC(=O)COC(=O)C2=COCCO2)cc1
#32 CCOc1ccccc1C(=O)N1CCOCC1

screen / no. | 25 | 26 | 27 | 28 | 29 | 30 | 31 | 32
HP1b chromo inh | 37% | 15% | 4% | 18% | / | -21% | / | /
RGS4 inh | -11% | -32% | 31% | -15% | -5% | -8% | -9% | 17%
PI4K2A block | -1 | 4 | 5 | 3 | -7 | -2 | -5 | -3
GLS inhibitor | 3% | -1% | 8% | / | 1% | 5% | 1% | -2%
ERG Ets-DNA blk | 3% | -2% | -4% | 7% | -1% | -4% | 11% | -3%
JMJD2A Tudor inh | -9% | -17% | -1% | -3% | -12% | -13% | 7% | 1%

This is a subset. The share of hits here may be higher or lower than overall.
